Bm FixLJ act: B. multivorans fixK reporter activation; B. multivorans fixK-promoter GFP reporter, 18 h; hits give high values; z-score (concentration not given with the values); 29,000 compounds, 0.3% hits;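 active means replicate mean overnight rise in green fluorescent reporter signal, 3 or more SD over negative controls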;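 further: score is relative to vehicle wells of the plate; 300 nL library stock went into each well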
The depositor's hits bear a star; & = joins results of further samples. Only part of the results is shown; count on the stated rates, not on these rows.

Structure	Bm FixLJ act
CCOc1ccc(CC(=O)Nc2c(C(=O)Nc3ccc(OC)cc3OC)oc3ccccc23)cc1	0.13
N#Cc1c(-n2ncnc2-c2cccc(Br)c2)sc2c1CCCCC2	-1.1
COc1ccc(-c2nn(-c3ccc(C)cc3)c3c2cnc2ccc(C)cc23)cc1OC	-1.7
Cc1ccc(-n2c(=O)c3ccc(C(=O)NCc4ccccc4Cl)cc3n(CC(N)=O)c2=O)cc1	-0.89
CCCn1ncnc1C(C)NC(=O)C1CCN(C(=O)COCC)CC1 (stereo not drawn)	-1.1
COc1ccc(Nc2cc(C(=O)NCc3ccccc3)c3ccccc3n2)cc1OC	-1.2
COc1ccc(-n2nnc(C(=O)Nc3ccccc3F)c2N)cc1	-2.5
O=S(=O)(N1CCCCC1)N1CCCN(Cc2ccc(-n3ccnc3)cc2)CC1	-0.25
CC(=O)Nc1ccc(NC(=O)C(NS(=O)(=O)c2ccc(Br)s2)c2ccccc2)cc1 (stereo not drawn)	-0.43
Cc1cccc(NC(=O)c2cc3c(C)nn(-c4ccccc4)c3s2)c1	-0.81
CCOc1ccc(NC(=O)[C@@H](c2ccccc2)N2Cc3ccccc3C2=O)cc1	-0.14
CCOc1ccc(NC(=O)CCc2c(C)nc3c4c(C)cc(C)nc4nn3c2C)cc1	0.11
CCc1ccc2oc(C(=O)Nc3nonc3CC)c(C)c2c1	-0.64
COc1cccc(C(=O)NC2COCC2Cc2ccncc2)c1OC (stereo not drawn)	-0.99
CCOc1ccc(-c2nonc2NC(=O)COc2ccc(C)c(C)c2)cc1OCC	0.88
COc1ccc(OCCCN2CCC(c3nnc4n3CCCCC4)CC2)cc1	0.25
CCOc1ccccc1NC(=O)CCCc1nc(-c2ccccc2Cl)no1	-4.6
CC(C)CN1CCN(C(=O)CCCc2nc(-c3ccncc3)no2)C(C)C1=O (stereo not drawn)	0.25
COC(=O)c1ccc(Nc2nc(-c3ccc(C)cc3)nc3ccccc23)cc1	1.2
O=C(Cn1c(-c2ccccc2)nn(-c2ccc(Cl)cc2)c1=O)N1CC(O)C1	-3.3

More compounds follow:
Structure	Bm FixLJ act
CCOC(=O)c1c(NC(=O)c2cc(=O)c3cc(Cl)ccc3o2)sc(C)c1C	-0.18
Cc1ccc(C)c(N2CCN(C(=O)c3cc4cc5ccc(C)cc5nc4o3)CC2)c1	-0.71
Cc1ccc(S(=O)(=O)NC2(C(F)(F)F)C(=O)Nc3c2c(=O)[nH]c(=O)n3-c2ccccc2)cc1 (stereo not drawn)	-1.3
Cc1ccc2c(=O)cc(C(=O)Nc3sc4c(c3C(=O)NCc3ccco3)CCCC4)oc2c1C	-0.95
CC(C)c1nccc(C(=O)NCCc2nc3ccccc3o2)n1	-0.77
O=C(Nc1ccc(Cl)c(C(F)(F)F)c1)C(Cc1ccccc1)NS(=O)(=O)c1ccc(Br)s1 (stereo not drawn)	-1.6
CCC(NC(=O)c1cccc(-c2cc(OC)nc(N)n2)c1)c1ccnn1C (stereo not drawn)	0.23
O=C(COc1ccccc1F)Nc1c(C(=O)Nc2cccc(F)c2)oc2ccccc12	0.35
COc1ccc(CCNC(=O)CCc2c(C)c3ccc(O)c(C)c3oc2=O)cc1	2.3
Cc1cc(C)cc(NC(=O)CN(C)S(=O)(=O)c2ccc3c(c2)CCC(=O)N3)c1	-0.33
CCc1ccc(C(=O)c2cn(CC(=O)Nc3cc(OC)ccc3OC)c3ccc(Cl)cc3c2=O)cc1	0.91
Cc1ccc(NC(=O)Cn2c(=O)n(Cc3ccccc3)c(=O)c3sc4ccccc4c32)cc1	-1.4
CCOC(=O)c1cc2c(=O)n3ccccc3nc2n(Cc2ccco2)c1=NC(=O)c1ccc(OC)cc1	-0.81
COc1cccc(CN2CCCC(NC(=O)CCc3nc(Cl)n[nH]3)C2)c1 (stereo not drawn)	-1.4
Cc1ccc(N(CC(=O)N2CCN(c3cc(C)ccc3C)CC2)S(=O)(=O)c2c(C)nn(C)c2C)cc1	-1.7
CNC(=O)c1ccc(OC2CCN(C3CCCC3)CC2)c(OC)c1	-0.83
CCOCCCNC(=O)CCC(=O)NNc1nc2ccccc2c2nc(-c3ccccc3)nn12	0.03
CCn1c(=O)c(=O)n(CC)c2cc(N3CCCCC3)c(NC(=O)c3ccccc3OC)cc21	-0.33
COc1ccc(OCc2nc3ccccc3n2Cc2ccc(C(C)(C)C)cc2)cc1	-0.03
Cc1oc(-c2ccc(Cl)cc2)nc1CN1CCCC(C(=O)NCCc2ccc(Cl)cc2)C1 (stereo not drawn)	-1.1

Continuation:
Structure	Bm FixLJ act
COc1ccc(Nc2nnc(-c3cc4c(ccc5ccccc54)oc3=O)s2)cc1	1.2
Cc1cc(C(=O)NC(c2cnn(C)c2)C2CC(O)C2)ccc1F (stereo not drawn)	-1.1
Cc1ccc(-c2nc(CNC(=O)C(N)C(C)O)[nH]c2-c2ccccn2)cc1 (stereo not drawn)	1.2
COc1ccc(-c2nc(CN3CCC(C(=O)NCc4ccc(F)cc4)CC3)c(C)o2)cc1OC	-1.7
CN(C)CCCNC(=O)N(C)Cc1nc2ccc(F)cc2[nH]1	-0.2
COc1ccc(C)cc1NC(=O)C(=O)NCC1(c2ccccc2)CCCC1	-0.89
O=C(c1ccc(N2CCCCC2)cc1)N1CCCC2(CCc3cn[nH]c32)C1 (stereo not drawn)	0.17
Cn1c(=O)c(=O)n(C)c2cc(N3CCCC3)c(NC(=O)c3ccccc3Cl)cc21	0.87
Cc1cc(N2CCC(c3nnc(CN4CCCC4)n3C3CC3)CC2)ncn1	-0.61
COC(=O)C(NC(=O)CCc1c(C)nc2cc(-c3cccc(F)c3)nn2c1C)C(C)C (stereo not drawn)	-0.12
CCCCN(Cc1cc2ccccc2[nH]c1=O)C(=O)c1cccc(Cl)c1	-0.06
CC1CCN(S(=O)(=O)c2ccc3c(c2)N(CC(=O)NC(C)C)C(=O)CS3)CC1	-0.6
Cc1sc2c(c1C)c(=O)n(-c1ccc(Cl)cc1)c(=O)n2CC(=O)c1ccccc1	0.64
CCCN1CC(NS(=O)(=O)c2cc(Cl)c(C)cc2OCC)CC1=O (stereo not drawn)	-0.77
NC1CCN(C(=O)c2cc3n(n2)CCCN(Cc2ccccc2)C3)C1 (stereo not drawn)	-1.3
O=C1CCC2(CCN1)CCN(C(=O)CCc1cn3ccccc3n1)CC2	-1.2
CN(C)CCC(c1ccc(Cl)cc1)c1ccccn1 (stereo not drawn)	-1.7&-1
Cc1c2cnn(-c3ccccc3)c(=O)c2c(C)n1CC(=O)NCc1ccc(Cl)cc1	-1.2
CN(Cc1cccc(O)c1)C(=O)NC(CN1CCCC1)C(C)(C)C (stereo not drawn)	-0.24
O=C(O)Cc1ccccc1	-0.63

Individual results from the entries so far:
Under Bm FixLJ act, `CCCN1CC(NS(=O)(=O)c2cc(Cl)c(C)cc2OCC)CC1=O` (stereo not drawn) is entered as -0.77
Under Bm FixLJ act, `O=C(Nc1ccc(Cl)c(C(F)(F)F)c1)C(Cc1ccccc1)NS(=O)(=O)c1ccc(Br)s1` (stereo not drawn) is entered as -1.6
Under Bm FixLJ act, `Cc1ccc(NC(=O)Cn2c(=O)n(Cc3ccccc3)c(=O)c3sc4ccccc4c32)cc1` is entered as -1.4

The list continues:
Structure	Bm FixLJ act
N#Cc1c(-c2ccccc2)cc(-c2ccccc2)nc1SCC(O)CS(=O)(=O)Cc1ccccc1 (stereo not drawn)	0.05
COc1cc(C(=O)Nc2cccc(OCc3cc(=O)n4cc(C)sc4n3)c2)cc(OC)c1OC	1.4
COc1ccc(S(=O)(=O)Nc2cc(-c3cn4ccccc4n3)ccc2C)cc1	2.2
CCOC(=O)c1ccccc1NC(=O)CCOc1ccccc1	0.35
CCCn1c(=N)c(C(=O)NCC2CCCO2)cc2c(=O)n3cc(C)ccc3nc21 (stereo not drawn)	-0.7
CCCc1cc(N2CCN(c3cc(Cl)ccc3C)CC2)n2cnnc2n1	-0.94
CCn1c(Cn2ccnc2C)nnc1C1CCN(C(=O)CNC)CC1	-0.05
COc1ccc2[nH]c(CNC(=O)c3ccc(-n4ccnc4)cc3)cc2c1	1
Cc1c(CN(Cc2ccncc2)CC2CCCO2)cc(C#N)n1C (stereo not drawn)	-4.3
CCOC(=O)c1c(C)n(-c2ccccc2)c2ccc(OC(=O)COc3ccccc3)cc12	0.5
C[C@@H](O)[C@H]1C(=O)N2C(C(=O)O)=C(S[C@@H]3CN[C@H](C(=O)N(C)C)C3)[C@H](C)[C@H]12	-2.2
Cc1ccc(C)c(CN2C(=O)c3ccccc3S(=O)c3ccc(C(=O)NCCc4ccc(Cl)cc4)cc32)c1 (stereo not drawn)	0.11
CC(C)CC(=O)NC1(C(F)(F)F)C(=O)Nc2c1c(=O)[nH]c(=O)n2-c1ccccc1 (stereo not drawn)	0.38
CCOC(=O)c1cnc2ccc(C)cc2c1NCCc1ccc(OC)c(OC)c1	0.26
CCc1ccccc1S(=O)(=O)Cc1ccc(C(=O)NCCc2ccc(Cl)cc2)o1	-1.6
Nc1ccc(S(=O)(=O)NC2(C(F)(F)F)NC(=O)N(c3cccc(Cl)c3)C2=O)cc1 (stereo not drawn)	1.1
COc1ccc(-c2oc3ncn4nc(-c5ccccc5C)nc4c3c2-c2ccc(OC)cc2)cc1	-0.14
COc1ccccc1CCNC(=O)CCc1c(C)c2cc3c(C)coc3c(C)c2oc1=O	0.7
CC(C)C(=O)Nc1ccc([N+](=O)[O-])c(C(F)(F)F)c1	-0.98&-0.07
CCOc1ccc(/C=C/c2nc(C#N)c(NC3CCCCC3)o2)cc1	-3.2

Following part:
Structure	Bm FixLJ act
COC(=O)c1ccccc1NC(=O)c1nn(-c2ccc(OC)cc2)c(=O)c2c1c1ccccc1n2C	-1.6
Cc1ccc(S(=O)(=O)c2nc(-c3ccccc3Cl)oc2N2CCCCCC2)cc1	1.1
COc1cc2c(cc1NC(=O)COc1ccc(Br)c(C)c1)oc1ccccc12	-2
CCn1cnc2c(=O)oc3ccc(S(=O)(=O)Nc4ccc(OC)cc4)cc3c21	-0.67
COC(=O)c1sc(S(=O)(=O)N2CCN(c3ccc(OC)cc3)CC2)c(C(=O)OC)c1C	-0.08
N#Cc1cccc(C(=O)N2CC3c4ccccc4OC[C@]3(CO)C2)c1 (stereo partly drawn)	-2.1
O=C(c1cncc(NCc2cn3ccsc3n2)n1)N1CCCC1	-1.8
CCCc1noc(CN(C)S(=O)(=O)c2cc(C(=O)O)ccc2Cl)n1	-1.5
c1cnc(-c2nc(CNCc3ccc(C4CCCCO4)o3)cs2)cn1 (stereo not drawn)	-0.99
CN(C)c1ccc(NC(=O)CC(NCc2cccnc2)C(=O)O)cc1 (stereo not drawn)	0.78
COc1ccc2cc(CCC(C)=O)ccc2c1	-2.2&0.77
CCOc1ccc(NC(=O)Nc2cc3c(cc2N2CCCCC2)n(C)c(=O)n3C)cc1	0.27
COc1ccc(OC)c(C(O)C(C)N)c1 (stereo not drawn)	-1
N[C@@H]1CONC1=O	0.16
COC(=O)C1CCN(Cc2cccc(C(=O)Nc3nccn3C)c2)CC1	-1
CCOc1ccc(-n2nc3ccc(NC(=O)COc4ccc(OC)cc4)cc3n2)cc1	-0.88
C#CCn1c(COc2ccccc2C)nc2ccccc21	-2
Cc1ccc(Cn2nc3n(c2=O)-c2cc(Cl)ccc2OC3)cc1	0.49
COc1ccc(OC)c(C2CC(=O)N(c3cccc(C)c3)C3=C2C(=O)OC3)c1 (stereo not drawn)	-0.36
CCn1cc(C(=O)NCc2ccccc2)c(=O)c2cc(S(=O)(=O)N3CCCCC3)ccc21	0.41

(continued)
Structure	Bm FixLJ act
CC(CCCc1ccccc1)NC(=O)c1nn(-c2ccc(Cl)cc2)nc1CO (stereo not drawn)	-0.33
COc1ccc(C(=O)NCCSc2c[nH]c3ccccc23)cc1OC	-0.25
Fc1ccc(-c2cc(-c3ccc(F)cc3)c3c(n2)-c2cc(F)ccc2OC3)cc1	0.47
COc1ccc(NC(=O)c2ccc3c(c2)N(Cc2cccc(Cl)c2)C(=O)c2ccccc2S3(=O)=O)cc1Cl	0.38
CCCCNc1nc(Oc2ccc(OCC(N)=O)nn2)nc(N2CCOCC2)n1	1.1
CCCN(CCC)C(=O)C1CCCN(S(=O)(=O)c2ccc3c(c2)oc(=O)n3C)C1 (stereo not drawn)	-1.1
CCOc1ccccc1NC(=O)CN1C(=O)C(=O)c2ccccc21	0.52
COc1ccc(-c2cc(C(=O)NCCc3ccccc3)c3c(-c4ccccc4)[nH]nc3n2)cc1OC	1.4
COc1ccc2c(C)cc(SCC(=O)Nc3nsc(-c4ccccc4C)n3)nc2c1	-0.71
COc1ccc(C(=O)COC(=O)c2cc(-c3cccs3)nc3ccccc23)cc1	-0.1
Cc1cn2c(=O)cc(COc3ccc(NC(=O)c4cccc(F)c4)cc3)nc2s1	0.24
CCSc1ncc(Cl)c(C(=O)Nc2c(C(=O)Nc3ccccc3)oc3ccccc23)n1	0.95
CC1Cc2cc(C(=O)NCCSc3cn[nH]n3)ccc2O1 (stereo not drawn)	-3.4
Cc1cc(Nc2cccc(C)c2C)n2cnnc2n1	-0.7
COCc1nnc(NC(=O)c2cc(OC)c(OC)c(OC)c2)s1	-0.71
Cc1oc(-c2ccc(Cl)cc2)nc1CN1CCCC(C(=O)NCc2ccc(Cl)cc2)C1 (stereo not drawn)	-1
CCCSc1ccc(NC(=O)NCCc2c[nH]c(=O)[nH]c2=O)cc1	0.89

Shown as labelled records: 4 of the compounds above.
SMILES: CCSc1ncc(Cl)c(C(=O)Nc2c(C(=O)Nc3ccccc3)oc3ccccc23)n1
  Bm FixLJ act: 0.95

SMILES: CC1Cc2cc(C(=O)NCCSc3cn[nH]n3)ccc2O1 (stereo not drawn)
  Bm FixLJ act: -3.4

SMILES: Cc1cc(Nc2cccc(C)c2C)n2cnnc2n1
  Bm FixLJ act: -0.7

SMILES: COCc1nnc(NC(=O)c2cc(OC)c(OC)c(OC)c2)s1
  Bm FixLJ act: -0.71
